Screening data deposited in PubChem by National Center for Advancing Translational Sciences (NCATS).
VDR inh – blocks the human vitamin D receptor; VDR-SRC2-3 peptide fluorescence polarization, 2 h; actives 0.93% (n = 400,000); Potency, µM, without a hit: max response, negative = inhibition, most hits filed as inhibitors; active means well fitted inhibition curve with a large enough effect; inconclusive means small, poorly fitted or top-dose-only effect, or another doubt; inactive means no such curve, though single readings can be large or run the other way; further: series mostly up to about 120 µM
Target sequence (P11473 whole entry, looked up): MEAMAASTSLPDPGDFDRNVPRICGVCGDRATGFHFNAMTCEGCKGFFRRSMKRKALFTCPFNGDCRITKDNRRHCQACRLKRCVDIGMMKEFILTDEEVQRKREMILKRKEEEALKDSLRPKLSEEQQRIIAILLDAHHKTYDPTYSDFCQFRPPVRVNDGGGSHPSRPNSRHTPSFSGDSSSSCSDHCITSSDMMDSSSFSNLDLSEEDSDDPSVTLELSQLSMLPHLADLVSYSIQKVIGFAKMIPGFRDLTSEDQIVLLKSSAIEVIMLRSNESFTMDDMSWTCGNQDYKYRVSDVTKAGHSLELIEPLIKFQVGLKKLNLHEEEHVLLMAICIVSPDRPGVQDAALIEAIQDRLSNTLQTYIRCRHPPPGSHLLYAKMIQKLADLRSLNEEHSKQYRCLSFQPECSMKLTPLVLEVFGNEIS
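Fluorescence polarization assay measuring small-molecule disruption of VDR binding to the coregulator peptide SRC2-3. Compounds were pin-transferred (23 nl) into the reagent mix and incubated 2 h at room temperature before reading.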
Numbers without * were called inactive; ? = inconclusive. On the % scale 0 is the no-effect control and ±100 the full control effect; potency means the concentration at half of the fitted maximal effect.

CCOc1ccc(-c2cnc(NCc3ccc(OC)cc3OC)n2C)cc1
  VDR inh = -12%
COc1cc(C(=O)N(Cc2ccccn2)CC2CCCO2)cc(OC)c1OC (configuration not stated)
  VDR inh = -8%
COc1ccc(N2CCN(c3nc(Cl)nc(N4CCOCC4)n3)CC2)cc1
  VDR inh = 10%
Cc1cc(C(=O)OCC(=O)NCc2ccco2)c(C)o1
  VDR inh = 7%
c1cn(-c2ncnc3ccc(-c4ccoc4)cc23)cn1
  VDR inh = 32µM*
COc1ccc(-c2c(C(F)(F)F)oc3cc(OCC(=O)Nc4ccccc4C(F)(F)F)ccc3c2=O)cc1OC
  VDR inh = 1%
COc1ccccc1CCNC(=O)c1cc2c(=O)n3cccc(C)c3nc2n1C
  VDR inh = 0%
COC(=O)c1ccccc1NC(=O)CSCC(=O)Nc1ccccc1
  VDR inh = -14%
COc1cc(-c2noc(-c3cc(C(C)C)[nH]n3)n2)cc(OC)c1OC
  VDR inh = 9%
C/C(=C\c1ccccc1)CN1CCN(C)CC1
  VDR inh = -12%
N#Cc1cccc(C(=O)Nc2ccccc2C(=O)NC2CC2)c1
  VDR inh = -16%
COCCn1c(CN2CCN(c3cccc(Cl)c3)CC2)nc2c1c(=O)n(C)c(=O)n2C
  VDR inh = -2%
Cc1ccc(-n2c(=O)c3c(C)c(C(=O)N(C)C)sc3n(Cc3ccccc3C)c2=O)cc1C
  VDR inh = 9%
CCOC(=O)c1c(NC(=O)CSc2nnnn2-c2ccccc2)sc2c1CCC(C)C2 (configuration not stated)
  VDR inh = 6%
COc1ccc(-c2cc(C(=O)Nc3sc4c(c3C#N)CCCC4)no2)cc1OC
  VDR inh = ?

Part of the list above, set out differently:
SMILES,VDR inh
C/C(=C\c1ccccc1)CN1CCN(C)CC1,-12%
COc1cc(C(=O)N(Cc2ccccn2)CC2CCCO2)cc(OC)c1OC (configuration not stated),-8%
COc1ccc(-c2c(C(F)(F)F)oc3cc(OCC(=O)Nc4ccccc4C(F)(F)F)ccc3c2=O)cc1OC,1%
Cc1cc(C(=O)OCC(=O)NCc2ccco2)c(C)o1,7%
N#Cc1cccc(C(=O)Nc2ccccc2C(=O)NC2CC2)c1,-16%

The list continues:
O=C(Nc1c(C(=O)N2CCCC2)cnn1-c1ccccc1)c1cccc(F)c1
  VDR inh = -2%
CNC(=S)NC1CC2CCC(C1)N2Cc1ccccc1 (configuration not stated)
  VDR inh = -17%
Cc1nc(NC(=O)CCC(=O)O)sc1C(=O)N(C)C
  VDR inh = 2%
CN(C)S(=O)(=O)c1ccc2c(c1)c(=O)c(C(=O)N1CCN(c3ccccn3)CC1)cn2C
  VDR inh = -4%
O=C(CN1C(=O)NC(CCc2ccccc2)C1=O)Nc1ccccc1C(F)(F)F (configuration not stated)
  VDR inh = -17%
COc1ccc(CCNc2cc(C)nc(N)n2)cc1OC
  VDR inh = -21%
Clc1ccc(CNc2nc(CN3CCOCC3)nc3scc(-c4ccccc4)c23)cc1
  VDR inh = -7%
COc1ccccc1-n1c(SCC(=O)O)nc2c(sc(=S)n2-c2ccc(Cl)c(C)c2)c1=O
  VDR inh = -26%
O=C(N=C1SC2CS(=O)(=O)CC2N1c1ccc(Cl)cc1)C1CCCO1 (configuration not stated)
  VDR inh = 13%
CCn1c(CCNC(=O)c2cccs2)nnc1SCC(=O)Nc1cccc(Cl)c1
  VDR inh = 1%
CNC(=O)C1CC(=O)N(CCc2ccc(C)cc2)C1 (configuration not stated)
  VDR inh = -7%
COc1ccc(OC)c(CNC(=O)CCc2cn(C)c3ccccc23)c1
  VDR inh = 20%
CCCNC(=O)C(Cc1cccc(Br)c1)NC(=O)c1ccc(C#N)cc1 (configuration not stated)
  VDR inh = -9%
COC(=O)c1[nH]c2ccc(Br)cc2c1NC(=O)CN1CCCc2ccccc21
  VDR inh = 21%
O=C(CSc1cn(CCNC(=O)c2c(F)cccc2F)c2ccccc12)NCC1CCCO1 (configuration not stated)
  VDR inh = -1%

COc1ccc(NC(=O)C(c2ccc(OC)cc2)N(C)C(=O)c2cnccn2)cc1 (configuration not stated)
  VDR inh = 15%
CCCCCOc1ccc(C(C)(O)C(CN2CCOCC2)c2ccccc2)cc1 (configuration not stated)
  VDR inh = 1%
O=S(=O)(NCc1cc(-c2ccccc2Cl)no1)c1ccc(Cl)cc1
  VDR inh = 18µM*
CC(C)(C)C1CCc2nc(NC(=O)Cc3cn4ccsc4n3)sc2C1 (configuration not stated)
  VDR inh = -6%
Cc1ccc(S(=O)(=O)NCCC(=O)NCCc2ccccc2)cc1
  VDR inh = 1%
O=C(/C=C/c1ccccc1F)c1ccoc1
  VDR inh = ?
CCn1cc(C(=O)NCCc2ccc(Cl)cc2)c(=O)c2cc(S(=O)(=O)N3CCCCCC3)ccc21
  VDR inh = 5%
Cc1c(C(=O)NNC(=O)c2cccnc2)cccc1[N+](=O)[O-]
  VDR inh = 5%
CCCc1cc(=O)[nH]c(SCC(=O)Nc2ccc(C)cc2)n1
  VDR inh = 5%
CCC(C)NC(=O)c1cc2cc3ccc(OC)cc3nc2o1 (configuration not stated)
  VDR inh = 9%
O=C(NCc1ccccn1)c1cn(Cc2ccccc2)nn1
  VDR inh = -2%
COC(=O)CN1C(c2ccc(Cl)cc2)=Nc2ccc(Cl)cc2C1c1ccccc1 (configuration not stated)
  VDR inh = -24%
NC(=O)Cn1cc(/C=N/NC(=O)c2ccc(Cn3cc(Cl)cn3)o2)c(-c2ccccc2)n1
  VDR inh = 15%
Cc1ccccc1NC(=O)c1ccc2c(c1)CCN2S(C)(=O)=O
  VDR inh = 1%
CCCc1cc(=O)[nH]c(SCC(=O)c2ccc(S(=O)(=O)N3CCCC3)cc2)n1
  VDR inh = -1%

Sorted by SMILES length (high to low): part of the list above.
CCn1cc(C(=O)NCCc2ccc(Cl)cc2)c(=O)c2cc(S(=O)(=O)N3CCCCCC3)ccc21
  VDR inh = 5%
CCCc1cc(=O)[nH]c(SCC(=O)c2ccc(S(=O)(=O)N3CCCC3)cc2)n1
  VDR inh = -1%
Cc1c(C(=O)NNC(=O)c2cccnc2)cccc1[N+](=O)[O-]
  VDR inh = 5%
O=C(NCc1ccccn1)c1cn(Cc2ccccc2)nn1
  VDR inh = -2%

(more compounds)
CC(C)(C)NC(=O)C(c1ccncc1)N(C(=O)Cn1nnc(-c2ccc(F)cc2)n1)c1ccccc1 (configuration not stated)
  VDR inh = ?
CC(C)Oc1ccc(CNC(=O)c2cccc(NC(=O)c3nsc4ccccc34)c2)cc1
  VDR inh = 8%
COc1cccc(CNCc2ccccc2OC)c1
  VDR inh = -18%
CCOC(=O)C(=O)N1CCN(CC)CC1
  VDR inh = -9%
CNC(=S)N/N=C/c1cn(Cc2ccc(C)cc2)c2ccccc12
  VDR inh = -14%
CC[C@H](C)[C@H](NC(=O)[C@H](CC(=O)O)NC(=O)[C@H](CC(C)C)NC(=O)[C@H](Cc1cnc[nH]1)NC(=O)[C@H](C)NC(=O)[C@H](Cc1ccccc1)NC(=O)[C@H](Cc1ccc(O)cc1)NC(=O)[C@@H](NC(=O)[C@H](C)NC(=O)[C@H](CCC(=O)O)NC(=O)[C@H](CCC(=O)O)NC(=O)[C@H](CC(=O)O)NC(=O)CCC(=O)O)C(C)C)C(=O)N[C@H](C(=O)N[C@@H](Cc1c[nH]c2ccccc12)C(=O)O)[C@@H](C)CC
  VDR inh = -7%
Cn1nc(-c2ccccc2)cc1NC(=O)Nc1ccccc1F
  VDR inh = 17%
Cn1cc(C=O)c2cc(F)ccc21
  VDR inh = -16%
Cc1ccc(Sc2ccc(C(=O)N(C)C)cc2[N+](=O)[O-])cc1
  VDR inh = -1%
CSc1ccccc1NC(=O)COC(=O)c1ccc(O)cc1
  VDR inh = 4%
Cc1ccc2cc3c(NC(=O)c4cccnc4)nn(C)c3nc2c1
  VDR inh = -4%
CN(Cc1cccnc1)C(=O)CC1C(=O)NCCN1CC(c1ccccc1)c1ccccc1 (configuration not stated)
  VDR inh = -16%
Fc1ccc(-c2csc(NC3=NCCC3)n2)cc1
  VDR inh = 6%
CCCn1cc(CN2CCC(n3nccc3NC(=O)c3ccccc3)CC2)c(C)n1
  VDR inh = -7%
Cc1ccc(-c2ccc(CCC(=O)O)o2)cc1
  VDR inh = ?

CN(N=Cc1cccc2cccnc12)c1ccc([N+](=O)[O-])cc1[N+](=O)[O-]
  VDR inh = -17%
CCc1ccc(NC(=O)N(Cc2cccnc2)Cc2ccco2)cc1
  VDR inh = -20%
Nc1nnc(SCC(=O)N2CCN(c3ccccc3)CC2)s1
  VDR inh = -18%
CCOC(=O)c1c(C)[nH]c(C)c1S(=O)(=O)N1CCC(C(=O)Nc2ccc(F)cc2F)CC1
  VDR inh = 12%
O=C(Nc1ccc(N2CCOCC2)cc1)c1cc(F)c(F)cc1Cl
  VDR inh = 12%
CCCCCC1CCC(c2ccc(/C(N)=N/O)cc2)CC1 (configuration not stated)
  VDR inh = -7%
O=C(CN1C(=O)C2C3C=CC(C3)C2C1=O)Nc1nc(SCc2ccc(Cl)cc2)n[nH]1 (configuration not stated)
  VDR inh = 10%
CCC(=O)N1c2ccccc2CC1C(=O)NCCCN1CCN(c2cc(C)ccc2C)CC1 (configuration not stated)
  VDR inh = 17%
O=C1CC(c2ccco2)CC2=C1C(c1cccnc1)n1nc(C(F)(F)F)nc1N2 (configuration not stated)
  VDR inh = -13%
COC1Cc2ccccc2N(C(=O)N2CCN(CCO)CC2)c2ccccc21 (configuration not stated)
  VDR inh = -13%
O=C(Nc1ccccc1C(=O)N1CCOCC1)c1cccc(S(=O)(=O)N2CCCC2)c1
  VDR inh = 20%
Nc1nc2c(nc(Br)n2[C@@H]2O[C@H]3COP(=O)(O)O[C@H]3[C@@H]2O)c(=O)[nH]1
  VDR inh = -1%
CC(=O)N1C(=O)CC(C)N(C(C)=O)c2ccc([N+](=O)[O-])cc21 (configuration not stated)
  VDR inh = -6%
CN(C)c1ccc(/C=C/c2nc3ccccc3c(=O)n2CCO)cc1
  VDR inh = 7%
CCCNS(=O)(=O)c1ccc(CCC(=O)NCc2ccco2)cc1
  VDR inh = -14%

CC1(C)N=C(N)N=C(N)N1c1cccc(CN)c1
  VDR inh = 1%
COC(=O)CSc1nc2nc(C)c(Br)cc2[nH]1
  VDR inh = -3%
CC(=O)NCCNc1nc(-c2cccc(C#N)c2)nc2ccccc12
  VDR inh = 7%
O=C(c1ccccc1)N(c1ccccc1)c1ccccc1O
  VDR inh = -10%
COc1ccccc1C(=O)NCCC(=O)N1CCN(c2ccccc2O)CC1
  VDR inh = -11%
COc1ccc(C(=O)N=C2SC3CS(=O)(=O)CC3N2Cc2ccccc2)cc1OC (configuration not stated)
  VDR inh = 11%
CC1CCCN(S(=O)(=O)c2cccc(C(=O)OCC(=O)N(C)Cc3c(F)cccc3Cl)c2)C1 (configuration not stated)
  VDR inh = 9%
COc1ccc(NCC(=O)N/N=C2\CCc3ccccc32)cc1
  VDR inh = -14%
CCCC(=O)OCC(=O)c1[nH]c(C)c(C(C)=O)c1C
  VDR inh = 2%
CC(=O)c1c(N2CCN(C(=O)C3CCCO3)CC2)nc(=S)n(-c2ccccc2)c1C (configuration not stated)
  VDR inh = -23%
O=C(CN1CCN(c2ccccn2)CC1)Nc1ccc(OCc2ccccc2)cc1
  VDR inh = -7%
COCCn1c(C)cc(C(=O)CSc2nc(C)c(C)c(C)n2)c1C
  VDR inh = -7%
CCc1ccc(/C=N/NC(=O)c2cc(-c3ccncc3)nc3ccccc23)s1
  VDR inh = 4%
Cc1cccc(Nc2nc3c(S(=O)(=O)c4ccccc4)nnn3c3ccccc23)c1
  VDR inh = -8%
CCCCOC(=O)Nc1nnc(CC(=O)NCc2ccccc2)s1
  VDR inh = 20%

O=C(CN(C(=O)c1ccc2c(c1)OCCO2)c1ccccc1)NCC1CCCO1 (configuration not stated)
  VDR inh = 0%
COc1ccccc1Oc1coc2cc(OCC(N)=O)ccc2c1=O
  VDR inh = 3%
CCn1cc(/C=N\NC(=O)c2ccccc2Cl)cn1
  VDR inh = 3%
O=[N+]([O-])c1cccc(-c2c(-c3ccccc3)ncc3cc(F)ccc23)c1
  VDR inh = -13%
COc1ccc2oc(C(=O)Nc3ccc(S(=O)(=O)N(C)C4CCN(C)CC4)cc3)c(C)c2c1
  VDR inh = 0%
COc1ccc(-c2ccnc(SCC(=O)N3CCOCC3)n2)cc1
  VDR inh = -10%
CCCCOc1ccc(C(=O)NCCS(=O)(=O)N2CCN(c3ccccc3OC)CC2)cc1
  VDR inh = 14%
O=C(NCCc1c[nH]c2ccccc12)c1cnccn1
  VDR inh = -11%
Cc1nc(CCNC(=O)c2ccccc2)cs1
  VDR inh = -12%
Cc1c(Cl)c([N+](=O)[O-])nn1CC(=O)NCc1ccco1
  VDR inh = 3%
Cn1c(-c2sc3ccccc3c2Cl)n[nH]c1=S
  VDR inh = 15%
COc1cccc(OC)c1C(=O)Nc1ccc2c(c1)OCCO2
  VDR inh = 5%
CC1(c2ccccc2)NC(=O)N(N)C1=O (configuration not stated)
  VDR inh = -30%
O=C(CSc1nnc(-c2cccs2)o1)Nc1cccc(S(=O)(=O)N2CCCCC2)c1
  VDR inh = 3%
CCOc1ccc(NC(=O)/C=C\C(=O)N(c2ccc(C(C)C)cc2)C(C(=O)NCc2ccco2)c2ccc(F)cc2)cc1 (configuration not stated)
  VDR inh = 9%

c1ccc(C(c2ccccn2)c2ccccn2)cc1
  VDR inh = 3%
COc1ccccc1OCC(=O)Nc1ccc2c(c1)C(=O)N(CC1CCCO1)C2=O (configuration not stated)
  VDR inh = -20%
COc1cccc(CNC(=O)C(CC(C)C)NC(=O)c2ccccc2C)c1 (configuration not stated)
  VDR inh = 1%
O=C(CC1C[C@H](C(=O)N2CCOCC2)[C@@]2(CCC3CCCC3)c3[nH]c4ccccc4c3CCN2C1=O)NCCC1=CCCCC1 (some centres not stated)
  VDR inh = -3%
CCC1(C)SC(N)=NN1C(C)=O (configuration not stated)
  VDR inh = 2%
COc1ccc(NC(=O)c2ccc(-c3nn(C)c(=O)c4ccccc34)cc2)cc1C(N)=O
  VDR inh = -7%
Cc1ccc(S(=O)(=O)N2CCCC2)cc1C(=O)O
  VDR inh = 9%
COc1ccc(OCC(=O)NC(=S)Nc2ccccc2F)cc1
  VDR inh = -13%

An excerpt. The share of hits here may be higher or lower than overall.
